PrP UTR inh: inhibition of PrP 5' UTR reporter expression; cell-based PrP 5' UTR mRNA reporter, plate reader; inhibition, % (test concentration not listed); 0.35% of 340,000 active;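 active = every replicate at 50% or more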;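 also: 0 = median of the neutral control wells; tested in H4 reporter cells; numbers are from one replicate; inactives centre near -14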
RN4220 kill: growth inhibition of S. aureus RN4220, primary screen, OD600; AID 1259311, 2017; inhibition, % (concentration not given with the values); 0.33% of 330,000 active; 16 h;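 active = z-score of -3 or lower and OD600 up to 0.18 on both plates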;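 also: plate controls were untreated cells for no effect and reference antibiotic for full effect; stock transfer was 100 nL into about 80 µL; one replicate is shown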
Autofluor counter: flagged as autofluorescent in microsphere protease counterscreen | compound autofluorescence counterscreen, microsphere flow cytometry; active compounds read high | fluorescence intensity (test concentration not listed) | 3.1% of 360,000 active;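 active = at least 3 SD above the mean of all compounds, about 16000 in these data; inconclusive = too few beads counted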;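 also: 100 nL of 1 mM stock went into each well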
ugtP null kill: growth inhibition of ugtP-null S. aureus, primary screen, RN4220 ugtP deletion, OD600. 16 h; some inactives read as strong as hits. growth inhibition, % (concentration not given with the values). 0.54% of 330,000 active;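 active = z-score under -3 and OD600 up to 0.15 on both plates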;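 also: plate controls were untreated wells for no effect and antibiotic for full effect; wells of about 80 µL received 100 nL stock; the first replicate is given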
Mtb hypoxia inh: PubChem AID 1159583 | M. tuberculosis hypoxia-regulated fluorescent reporter, fluorescence | fluorescence inhibition, % (concentration not given with the values) | 0.1% of 300,000 active;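 active = 35 to 45% if threefold the growth effect, above 45% if 1.5-fold the growth effect; inactive = the rest, general growth blockers included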;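 also: wells of about 50 µL received 100 nL stock; 0% = vehicle wells and 100% = reference inhibitor wells; whole bacteria with a GFP reporter of the hypoxia response; strong numbers were not always called active; many hits fall short of the cut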
BJeLR viability: MLPCN primary cell-based screen for lethality selective to Ras in HRASV12 cells; BJeLR (HRASV12) viability, CellTiter-Glo ATP luminescence, 48 h; reference of the scale not given here; inhibition, % (concentration not given with the values); 0.17% of 300,000 active;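 active = replicate mean above 50%; inconclusive = above 50% but judged a plate artefact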;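 also: 50 nL library stock added to about 25 µL; numbers are from one replicate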
Mtb hypoxia inh growth: second read-out of Mtb hypoxia inh, no call of its own (marks repeat the call); growth inhibition, %; measured here: M. tuberculosis growth (absorbance);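 0% = vehicle and 100% = reference antibiotic; read after six days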
* hit, by the source's call; ? = inconclusive; · = not tested or not shown.

SMILES	PrP UTR inh	RN4220 kill	Autofluor counter	ugtP null kill	Mtb hypoxia inh	Mtb hypoxia inh growth	BJeLR viability
CSc1ccc(CN2CCN(C3CCCC3)C(CCO)C2)cc1 (configuration not stated)	-5	9.0	3138	2	0	-3	-7
COCCN(C(=S)Nc1c(C)cccc1C)C(C)c1ccco1 (configuration not stated)	-10	4.3	5999	-3	12	1	5
Cc1ccc(-c2nnc(-n3nc(C)cc3C)c3ccccc23)cc1	-21	4.5	2641	13	17	7	8
CCCn1c(N=Cc2ccc3c(c2)OCO3)nc2ccccc21	·	9.4	·	21	0	0	·
O=C(Oc1ccc(C=NNc2nc(N3CCCCC3)nc(N3CCCCC3)n2)cc1)c1ccco1	·	6.2	·	6	-1	1	·
Cc1noc(/C=C/N(C)C)c1S(=O)(=O)N1CCCC(C(=O)NC2CCCCC2)C1 (configuration not stated)	-6	-8.4	4209	3	5	4	10
CCOC(=O)CCSc1nc(-c2ccc3c(c2)OCO3)cc(C(F)(F)F)c1C#N	-20	0.2	6931	4	1	-2	5
O=C(Nn1cnnc1)c1cc(Cl)cc(Cl)c1	5	1.8	4296	0	-1	-6	-3
c1ccc2c(c1)nnn2-c1ncnc2sccc12	-11	3.7	3267	7	7	4	0
C=CCNC(=S)N/N=C(\C)c1cccnc1	-20	·	4058	·	·	·	-17
CS(=O)(=O)N(CC(=O)N1CCCC1)Cc1ccccc1	-11	10	4615	5	4	3	1
Cc1cc(/C=C(\C#N)C(=O)OCC(=O)Nc2ccc(OC(F)F)cc2)c(C)n1CC(C)C	-3	-5.7	10544	-10	4	4	0

As entered above.
BJeLR viability with C=CCNC(=S)N/N=C(\C)c1cccnc1 reads -17
PrP UTR inh with Cc1cc(/C=C(\C#N)C(=O)OCC(=O)Nc2ccc(OC(F)F)cc2)c(C)n1CC(C)C reads -3
RN4220 kill with CCCn1c(N=Cc2ccc3c(c2)OCO3)nc2ccccc21 reads 9.4
PrP UTR inh with Cc1noc(/C=C/N(C)C)c1S(=O)(=O)N1CCCC(C(=O)NC2CCCCC2)C1 (configuration not stated) reads -6
Mtb hypoxia inh with CS(=O)(=O)N(CC(=O)N1CCCC1)Cc1ccccc1 reads 4
Mtb hypoxia inh growth with Cc1ccc(-c2nnc(-n3nc(C)cc3C)c3ccccc23)cc1 reads 7
Mtb hypoxia inh growth with CSc1ccc(CN2CCN(C3CCCC3)C(CCO)C2)cc1 (configuration not stated) reads -3

Back to the main list, starting 3 compounds before the break.
SMILES	PrP UTR inh	RN4220 kill	Autofluor counter	ugtP null kill	Mtb hypoxia inh	Mtb hypoxia inh growth	BJeLR viability
C=CCNC(=S)N/N=C(\C)c1cccnc1	-20	·	4058	·	·	·	-17
CS(=O)(=O)N(CC(=O)N1CCCC1)Cc1ccccc1	-11	10	4615	5	4	3	1
Cc1cc(/C=C(\C#N)C(=O)OCC(=O)Nc2ccc(OC(F)F)cc2)c(C)n1CC(C)C	-3	-5.7	10544	-10	4	4	0
CCCNC(=O)c1ccc(N2CCC3(CC2)CC(c2ccc(Cl)cc2)=NO3)c([N+](=O)[O-])c1	-10	5.6	3091	-1	0	5	6
COc1cc(CN(CCc2c(C)[nH]c3ccc(C)cc23)C(=S)NC(C)(C)C)cc(OC)c1OC	-1	-2.7	4112	17	3	10	-3
O=C(O)c1ccc(S(=O)(=O)N2CCC3(CC2)CC(=O)c2ccccc2O3)cc1	-17	3.3	4641	4	3	-4	2
Cc1ccc(NC(=O)CC2Oc3ccc(C)cc3NC2=O)cc1 (configuration not stated)	-26	2.8	4546	4	·	·	·
c1ccc(-c2noc(CN3CCN(C(c4ccccc4)c4ccccc4)CC3)n2)cc1	-14	-2.3	12843	5	6	5	2
CCN(CC(=O)Nc1c(F)cccc1F)C(=O)Cc1ccccc1	-40	6.1	4229	8	15	10	9
O=C(c1ccc2c(c1)N(Cc1ccc(F)cc1)C(=O)CS2)N1CCOCC1	-25	1.4	23754*	-2	7	4	-8
O=C(CCCN1C(=O)C(c2ccccc2)Oc2cccnc21)NCc1ccccc1F (configuration not stated)	-28	-2.2	5542	9	8	-5	9
COc1cc(/C=N/NC(=O)c2cccc(C(=O)N/N=C/c3ccc(O)c(OC)c3)n2)ccc1O	-36	·	3725	·	·	·	-3
COc1ccc(CNC(=O)C(CC(C)C)NC(=O)c2ccccc2C)cc1 (configuration not stated)	-11	1.5	3607	15	0	2	-5
COc1cc(-c2nnc(COc3ccc4ccccc4c3)o2)cc(OC)c1OC	-5	3.8	22472*	-15	1	5	-1
CCCCOC(=O)/C=C/c1c(C)[nH]c(=O)[nH]c1=O	-1	15	2179	8	1	-10	-11
Cc1cc2c(c(C)c1Cl)C(c1ccc3c(c1)OCO3)CC(=O)O2 (configuration not stated)	-27	-9.1	2825	22	-2	5	·
C=CCn1cnc2scc(-c3ccc(OC)cc3)c2c1=O	-18	3.4	3579	12	-2	-1	-9
CSCC[C@H](NC(=O)Nc1ccc(S(N)(=O)=O)cc1)C(=O)O	-26	4.8	5133	7	11	13	-10
CCOc1ccc(S(=O)(=O)Nc2ccc(C(=O)NCCCN3CCCC3=O)cc2)cc1	-14	1.6	4520	2	5	-4	-16
Oc1c(C(c2ccccc2)N2CCOCC2)ccc2ccccc12 (configuration not stated)	-13	25	4086	87*	15	12	·
COc1ccc(C(=O)NC2CCCc3ccccc32)cc1 (configuration not stated)	-20	4.6	3686	1	·	·	2
O=C(NC1CCc2ccccc21)c1cc(COc2ccc(F)cc2Cl)on1 (configuration not stated)	-10	-0.9	4485	11	2	-8	0
COc1ccccc1/C=C\C(=O)NCC(=O)NN=C(C)c1cccc([N+](=O)[O-])c1	·	2.9	·	-3	4	5	·
OCCNc1nc2ccccc2[nH]1	2	5.0	8863	8	11	2	3
CCC1CCCCN1C(=O)CSc1nc2ccsc2c(=O)n1Cc1ccccc1 (configuration not stated)	-17	2.5	9679	-9	14	6	7
O=C(NC1CCCC1)C(c1ccsc1)N(C(=O)Cc1cccs1)c1ccc(F)cc1 (configuration not stated)	-18	3.7	10071	5	18	13	1
NNc1nc2ccccc2c(=O)n1Cc1ccccc1	-1	2.4	3964	1	3	-3	16

Nothing new here: an excerpt of the list.
SMILES	PrP UTR inh	RN4220 kill	Autofluor counter	ugtP null kill	Mtb hypoxia inh	Mtb hypoxia inh growth	BJeLR viability
CSc1ccc(CN2CCN(C3CCCC3)C(CCO)C2)cc1 (configuration not stated)	-5	9.0	3138	2	0	-3	-7
COCCN(C(=S)Nc1c(C)cccc1C)C(C)c1ccco1 (configuration not stated)	-10	4.3	5999	-3	12	1	5

Other entries:
SMILES	PrP UTR inh	RN4220 kill	Autofluor counter	ugtP null kill	Mtb hypoxia inh	Mtb hypoxia inh growth	BJeLR viability
CCOc1cc2c(Cl)ncnc2c(OCC)c1OCC	-50	1.6	4650	-3	11	5	2
CCC(=O)NCC(c1cccs1)S(=O)(=O)c1ccc(C)cc1 (configuration not stated)	-6	0.7	5434	5	4	-6	5
O=C(c1cccc(Cl)c1)C1CCCN(C(=O)c2ccoc2)C1 (configuration not stated)	-8	1.8	4487	-1	11	8	4
CCOC(=O)NCCc1ccc(OC)cc1	-23	-12	3459	-2	18	9	-1
CN(CC(=O)Nc1ccc(Cl)c(C(F)(F)F)c1)C(=O)Cn1cc([N+](=O)[O-])ccc1=O	2	-2.5	3755	-10	1	0	·
C(=Cc1c[nH]c2ccccc12)c1ccc2ccccc2n1	42	-3.7	5756	6	4	5	·
Cc1c(NS(=O)(=O)c2ccc(Cl)c(C(=O)OC(C)C(=O)N3CCOCC3)c2)c(=O)n(-c2ccccc2)n1C (configuration not stated)	-1	0.1	2453	2	7	7	-1
CCOC(=O)c1oc2ccccc2c1NC(=O)Cc1cccs1	-12	3.9	11247	-5	7	2	-1
C=C(C)C1CC=C(C)/C(=N/NC(=O)CCC(=O)Nc2ccccc2Cl)C1 (configuration not stated)	-5	·	5049	·	·	·	2
CCOC(=O)CC(=O)Nc1ccn[nH]1	-8	2.9	5201	4	2	5	-8
CC(C)N(Cc1nc2ccccc2[nH]1)C(C)C	11	-9.2	4144	-6	-1	5	4
O=C(NCc1cccnc1)C1CCN(S(=O)(=O)N2CCOCC2)CC1	-2	2.9	8160	8	5	5	-1
COc1ccc(/C(C)=N/OCC(=O)Nc2nc3ccccc3s2)cc1	-22	·	10438	·	·	·	2
c1ccc2c(c1)OCC(c1csc3ncnc(N4CCOCC4)c13)O2 (configuration not stated)	4	1.1	9793	1	7	0	-9
CC(Sc1ccc(Cl)cc1)C(=O)NNC(=O)c1ccccc1O (configuration not stated)	-34	8.2	4779	-8	7	1	7
CN=C1CC(C)(C)CC(=O)/C1=C(\O)CCCN1C(=O)c2ccccc2C1=O	·	5.1	·	2	-7	2	·
CN(CCC1CCOCC1)C(=O)C1CCC(=O)N(CCc2cccc(F)c2)C1 (configuration not stated)	-2	1.0	?	-2	-7	6	4
O=C(NNC(=O)c1ccc(Br)cc1)c1ccncc1	-8	5.4	3480	5	2	-5	17
COC(=O)c1cc2sccc2n1Cc1nc(-c2cccc(Cl)c2)oc1C	-20	-8.5	6310	20	-8	5	-3
Cc1ccc(S(=O)(=O)N(C)Cc2ccc(C(=O)N/N=C/c3ccc(OC(F)F)cc3)cc2)cc1	10	·	2459	·	·	·	-12
O=C(c1cn[nH]c1)N1CCc2c([nH]c3ccccc23)C1c1c(F)cccc1Cl (configuration not stated)	0	-2.5	2584	3	2	3	7
CCOC(=O)C1C(=O)Oc2ccc3ccccc3c2C1C1CCOC1=O (configuration not stated)	-14	-2.2	6145	-2	·	·	1
CCOC(=O)c1[nH]c(CN2CCN(c3ccc(OC)cc3)CC2)c(C(=O)OCC)c1C	11	-0.7	5499	13	2	0	-4
CC(=O)[C@@]1(O)CC[C@H]2[C@@H]3CC=C4C[C@@H](O)CC[C@]4(C)[C@H]3CC[C@@]21C	-21	·	6144	·	·	·	7
Cc1nn(-c2ccccc2)c(Cl)c1C(=O)OCC(=O)NCCc1ccc(S(N)(=O)=O)cc1	1	-2.7	?	0	-10	2	·
Cc1nc2ccccc2c(=O)n1CCCO	-9	1.9	5470	2	9	4	-1
O=C(Nc1ccc(-c2csc(-c3ccccc3)n2)cc1)c1ccccc1Cl	-8	1.9	4163	-3	5	9	13
Cc1cc(C)cc(NC(=O)C2CCCN(S(=O)(=O)c3cnc[nH]3)C2)c1 (configuration not stated)	-5	3.3	5309	12	·	·	-5
CNc1cc(N2CCN(C)CC2)ccc1[N+](=O)[O-]	-20	3.9	2441	4	12	5	-4
CCOC(=O)N1CCC(NC(=O)CS(=O)(=O)Cc2nc(-c3ccccc3C)oc2C)CC1	-9	-7.4	5839	-7	3	13	-1
CC(Oc1ccccc1)c1ccn[nH]1 (configuration not stated)	-19	3.7	4500	6	14	10	1
CN1CCC(N(C)C(=O)c2ccc(Cl)c(S(=O)(=O)Nc3cc(Cl)ccc3Cl)c2)CC1	-6	2.4	3547	10	5	4	·
COc1ccc2nc(NC(=O)C3CCN(S(=O)(=O)c4cccs4)CC3)sc2c1	-7	0.2	5427	-7	-5	9	0
Nc1c(N2CCOCC2)cc(Cl)c2nonc12	-13	-1.5	23187*	-3	0	3	2
O=[N+]([O-])c1ccc(N2CCN(c3ccccc3O)CC2)c(Cl)c1	-10	2.7	2415	3	5	7	-11
CC12CCC(C(=O)Nc3ccccc3-n3cccc3)(CC1=O)C2(C)C (configuration not stated)	-9	11	2063	4	13	7	-7

Screens: PubChem, several laboratories
